# Assay outcomes from PubChem.
# Menin-MLL FL inh: qHTS Assay for Inhibitors Targeting the Menin-MLL Interaction in MLL Related Leukemias: Competition With Fluorescein Labeled MLL-derived Peptide | AID 1766, 2009 | Fluorescence polarization, fluorescein-MLL peptide displacement from menin | FP activity change, % at 61.4 µM | 290,000 tested, under 10 active; inconclusive = falling polarisation curve, or a change in total fluorescence; inactive = total fluorescence flat and polarisation flat or rising; no compound was filed as active; the % refers to the polarisation; negative = inhibition;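 note: % of control where 0% means no effect; inhibitors lower the polarisation; unlabelled MLL peptide was the positive control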
# CtBP-E1A inh: qHTS Assay for Inhibitors of the CtBP/E1A Interaction; 0.49% of 340,000 active; activity change, % (concentration not given with the values); AlphaScreen GST-E1A/His-CtBP binding, 1536-well; hits give low values; control for the full effect not named in the record; AID 651724, 2012; CtBP / adenovirus E1A interaction (AlphaScreen); in the data active means activity change below about -65%; inconclusive means about -30% to -65%; inactive means above about -30%; note: % is set by controls: 0 for no effect and ±100 for the full control effect
#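 GST-E1A and His-tagged CtBP (125 nM each as 5X stock) were preincubated with pin-transferred compound for 2 h at 37 °C in the dark, then glutathione donor and nickel acceptor beads were added for 1 h before AlphaScreen reading.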
# gsp antagonist: qHTS for Antagonists of gsp, the Etiologic Mutation Responsible for Fibrous Dysplasia/McCune-Albright Syndrome: qHTS; gsp-mutant cells, cAMP HTRF, 30 min; control for the full effect not named in the record; Potency, µM (series often up to 76.9 µM), without a hit: at the highest dose activity change, negative = inhibition, usual class: inhibitors; 0.4% of 340,000 active; AID 624288, 2012; active = falling curve of any shape with a large fitted effect; inconclusive = falling curve, mostly with a smaller effect; inactive = flat or rising curve; cell line not stated here;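 note: intracellular cAMP measured with PDE inhibitor Ro 20-1724 present during compound exposure; potency is the fitted concentration of half-maximal effect; % is set by controls: 0 for no effect and ±100 for the full control effect; nearly all actives have a fitted effect of over 65% in size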
#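 Cells, 2000/well, grown 16–24 h in DMEM 10% FBS with 0.5 mg/ml G418, then compounds plus […] (300 uM addition stock), 30 min at 37C. cAMP read by HTRF (cAMP-d2 and anti-cAMP antibody-K in lysis buffer) after 30 min RT.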
# gsp ag: qHTS for Agonist of gsp, the Etiologic Mutation Responsible for Fibrous Dysplasia/McCune-Albright Syndrome: qHTS. AID 624287, 2012. gsp mutant cells, cAMP HTRF, 30 min; control for the full effect not named in the record. Potency, µM (titrated, usually from 76.9 µM), for the others: at the top dose activation (cAMP increase), hits mostly activators. 0.13% of 340,000 active; active = well fitted activation curve with a large enough effect; inconclusive = small, poorly fitted or top-dose-only effect, or another doubt; inactive = no such curve, though single readings can be large or run the other way; cell line not stated here;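 note: phosphodiesterase inhibitor Ro 20-1724 added with compounds to block cAMP breakdown; potency is the fitted concentration of half-maximal effect; nearly all actives have a fitted effect of over 60% in size; about a fifth of the inactives were tested at one dose only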
#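 Cells stably selected in G418 were plated at 2000/well, grown 16-24 hr, then given compounds in DMSO with the PDE inhibitor […] (300 uM solution added) for 30 min at 37C; cAMP was read by HTRF.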
# Sfp PPTase inh: qHTS Assay for Inhibitors of Bacillus subtilis Sfp phosphopantetheinyl transferase (PPTase) | 3.5% of 310,000 active | Biochemical Sfp PPTase activity, qHTS | 4'-phosphopantetheinyl transferase ffp (Bacillus subtilis), Q9F4F7 | AID 1490, 2009 | Potency, µM, for the others: max response, negative = inhibition, most hits filed as inhibitors; active = well fitted inhibition curve with a large enough effect; inconclusive = small, poorly fitted or top-dose-only effect, or another doubt; inactive = no such curve, though single readings can be large or run the other way;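 note: the enzyme is Sfp with the accession as filed and its product quenches rhodamine fluorescence; potency is the fitted concentration of half-maximal effect; 0% = enzyme reaction without inhibitor and -100% = no enzyme wells; top concentration of the series not given in the record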
#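 Compounds were incubated with enzyme (final 15 nM) for 15 min at room temperature before substrate addition started the reaction. Fluorescence at 525 nm excitation, 598 nm emission was recorded immediately and after 30 minutes.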
# ClpP mod: qHTS Assay for Activators of ClpP | ATP-dependent Clp protease proteolytic subunit (Bacillus subtilis (strain 168)), P80244 | purified B. subtilis ClpP, FRET peptide cleavage, 20 min | Potency, µM (highest dose often 57.5 µM), inactives show at the top dose activity change, negative = active | 1.9% of 340,000 active | AID 651965, 2013; active = well fitted falling curve with a large enough effect; inconclusive = small, poorly fitted or top-dose-only effect; inactive = no such curve, though single readings can be large or run the other way; note: potency is the fitted concentration of half-maximal effect; the source files actives as falling curves though it sought activators and does not explain the sign; nearly all actives have a fitted effect of over 65% in size; many hits overshoot -100%
# Target sequence (P80244 whole entry, looked up): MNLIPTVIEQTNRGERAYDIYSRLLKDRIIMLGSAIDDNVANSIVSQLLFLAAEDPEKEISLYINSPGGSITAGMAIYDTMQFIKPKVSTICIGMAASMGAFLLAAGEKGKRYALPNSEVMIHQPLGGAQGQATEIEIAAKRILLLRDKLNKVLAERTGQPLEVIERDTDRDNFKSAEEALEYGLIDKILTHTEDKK
#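 ClpP 10 microg/mL final, pH 8 Tris/KCl buffer with BSA, glycerol, Tween-20; compound pinned in; FRET-FV substrate; RT 20 min; Ex320/Em430; ΔFRET vs ADEP 5.8 microM, DMSO, no enzyme.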
# TRPV1 potentiator: HTS Assay for Compounds that Act as Potentiators of the Vanilloid Receptor 1 | potentiation, % at 8.33 µM | 0.02% of 320,000 active | TRPV1-expressing cells, Fluo-8 calcium influx, capsaicin EC20 potentiation; host cell line not named in the record; control for the full effect not named in the record | Transient receptor potential cation channel subfamily V member 1 (Homo sapiens), Q8NER1; active means potentiation above 80%; inconclusive means 30% to 80%; inactive means below 30%; note: 0% is about no effect
# Target sequence (Q8NER1 whole entry, looked up): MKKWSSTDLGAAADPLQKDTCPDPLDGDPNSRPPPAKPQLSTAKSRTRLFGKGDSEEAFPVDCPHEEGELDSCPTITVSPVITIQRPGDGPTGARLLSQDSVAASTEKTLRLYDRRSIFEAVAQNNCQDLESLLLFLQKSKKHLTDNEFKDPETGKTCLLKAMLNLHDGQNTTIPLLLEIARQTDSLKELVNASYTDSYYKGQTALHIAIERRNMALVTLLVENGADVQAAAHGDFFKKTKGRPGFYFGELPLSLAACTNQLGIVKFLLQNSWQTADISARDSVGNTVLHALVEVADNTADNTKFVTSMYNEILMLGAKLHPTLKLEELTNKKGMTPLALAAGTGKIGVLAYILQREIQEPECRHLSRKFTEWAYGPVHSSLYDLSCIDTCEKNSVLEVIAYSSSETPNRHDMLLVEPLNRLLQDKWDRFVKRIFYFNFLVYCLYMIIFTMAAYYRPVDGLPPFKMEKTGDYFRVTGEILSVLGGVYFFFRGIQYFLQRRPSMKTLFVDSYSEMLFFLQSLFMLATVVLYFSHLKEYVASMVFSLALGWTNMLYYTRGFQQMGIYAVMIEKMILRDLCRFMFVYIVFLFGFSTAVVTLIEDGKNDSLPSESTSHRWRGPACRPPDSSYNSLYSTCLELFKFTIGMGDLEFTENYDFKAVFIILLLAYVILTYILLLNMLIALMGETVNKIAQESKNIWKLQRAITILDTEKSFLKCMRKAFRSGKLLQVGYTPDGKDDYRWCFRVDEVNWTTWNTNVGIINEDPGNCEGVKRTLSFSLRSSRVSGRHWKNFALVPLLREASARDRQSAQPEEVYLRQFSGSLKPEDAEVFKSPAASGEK
#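 TRPV1-expressing cells were cultured overnight at 35.5C and loaded with Fluo-8 calcium dye for 40 to 90 min at room temperature. After a 10 s baseline, compound was added and calcium influx was read kinetically for 3 min (ex 480/em 520 nm).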
# * hit, by the source's call; ? = inconclusive; . = not tested or not shown; & = joins results of further samples; [ ] = dose if it differs, or a comment.
SMILES,Menin-MLL FL inh,CtBP-E1A inh,gsp antagonist,gsp ag,Sfp PPTase inh,ClpP mod,TRPV1 potentiator
COC(=O)CCCC1=CC2=CC(=O)C(C)(OC(=O)c3cccs3)C(=O)C2=CN1c1cccc(C#N)c1 (stereo not drawn),?,-0.8,-4.3%,.,3.9%&-1.0%,0.1%,-16.7
N#C/C(=C(/O)c1cccs1)c1nc2ccccc2[nH]1,4.5,-13.5,-2.0%,?,-0.1%,3.4%,.
Nc1cc(OC(=O)c2ccc(F)cc2)nn1S(=O)(=O)c1ccccc1,-2.9,25.6,14.1%,-1.2%[15.4 µM],?,0.9%,-3.9
Cc1nc([N+](=O)[O-])cn1CC(=O)c1ccc(Br)cc1,.,7.3,-3.2%,.,.,-0.7%,-21.7
O=C(c1cc(S(=O)(=O)N2CCOCC2)ccc1F)N(Cc1nnc(-c2ccccc2Cl)o1)C1CC1,.,-0.7,?,14.2%,.,-0.8%,-3.0
CCOc1cc(N2CCOCC2)c(OCC)cc1NC(=O)COC(=O)c1ccc(OC)c([N+](=O)[O-])c1,.,0.9,-11.3%,-29.5%,.,0.4%,.
Cc1nc(-c2cccnc2)sc1C(=O)Nc1ccc(C(F)(F)F)cc1,4.1,-0.9,-12.0%,0.6%,4.8%,0.1%,-30.0
CCOC(=O)c1nnn(-c2nonc2N)c1COc1cc(C)c(Cl)c(C)c1,1.2,13.0,?,-0.6%,?,-2.5%,-30.0
O=C(CCSCc1cccc(Cl)c1)NCCc1ccccc1,-1.0,0.3,-11.6%,-0.2%,13.2%,1.5%,-7.6
CCOC(=O)N1CCN(C2=C(NS(=O)(=O)c3ccc(Br)cc3)C(=O)c3ccccc3C2=O)CC1,.,-8.0,.,-107.2%[inhibitor],.,7.2%,.
CCOC(=O)CC(=O)Nc1ccc(C)cc1,-0.1,6.9,0.7%,3.7%[15.4 µM],8.3%,-0.7%,-9.3
CC(=O)Nc1ccc(NC(=O)C(C)OC(=O)CCC2CCCCC2)cc1 (stereo not drawn),.,11.8,10.2%,-28.2%,3.9%,5.6%,-24.5
CC(=O)OC1CCC2(C)C(=CCC3C4CC(=O)N(O)C(=O)C4(C)CCC32)C1 (stereo not drawn),.,2.5,-7.3%,14.0%,.,.,.
COc1ccc2[nH]c(C)c(CCN3C(=O)OC(C)(C)C3(C)O)c2c1 (stereo not drawn),0.9,-0.8,-3.5%,-19.1%,12.9%,?,13.2
COc1ccc(N2C(=O)C3CCCN3C2c2cccc(Br)c2)cc1 (stereo not drawn),-1.4,0.0,-0.9%,-47.1%[inhibitor],-3.3%,-1.1%,-2.3
CCN(CC)C(=O)c1ccccc1NC(=O)CN1C(=O)c2ccccc2S1(=O)=O,-1.6,-11.3,-0.5%,19.7%,7.0%,.,-5.3
CCCOc1ccc(C(=O)Nn2c(C)nc3ccccc3c2=O)cc1,-0.6,-17.8,-25.0%,0.9%,6.7%,-3.2%,19.5
COc1cc(NC(=O)C(C)Oc2ccccc2)c(OC)cc1NC(=O)c1ccccc1 (stereo not drawn),-1.4,-4.8,-22.3%,-49.4%[inhibitor],-14.5%,-6.1%,-9.5
CC(C)CC(NC(=O)C1CCCN1C(=O)CNC(=O)OCc1ccccc1)C(=O)O (stereo not drawn),-1.8,.,11.2%,24.8%,9.4%,-2.3%,-3.9
CCCCn1c(N)c(N(CC)C(=O)c2cccs2)c(=O)[nH]c1=O,.,-3.6,3.0%,10.5%[15.4 µM],.,-1.6%,.
CN(C(=O)c1ccc(NC(=O)Cc2ccc(NC(=O)C3CCCN(C(=O)C4CCCC4)C3)cc2)cc1)C1CCCC1 (stereo not drawn),.,-2.8,-0.4%,.,.,0.3%,.
CC(C)(C)NC(=O)CSc1ccc(S(=O)(=O)N2CCOCC2)cn1,.,-3.7,8.3%,7.6%,.,-2.1%,5.8
CCOc1ccc(C(=O)N2CCCCCC2)cc1,6.2,-1.7,7.4%,28.3%,8.4%,-1.4%,.
Cc1ccc(S(=O)(=O)N/N=C/c2ccc3nccnc3c2)cc1,0.2,1.5,4.1%,7.5%,3.1%,-1.4%,1.8
O=C(NCCS(=O)(=O)NCc1ccccc1Cl)c1ccccc1,.,-0.9,3.2%,-45.7%[inhibitor],.,-0.9%,5.5
COC(=O)c1ccc(N2CCN(C)CC2)c(NC(=O)COc2ccccc2)c1,4.1,-4.5,-3.6%,-2.0%[15.4 µM],4.7%,.,-12.3
c1c2c(cc3sc(N4CCOCC4)nc13)OCO2,-0.8,1.8,-2.7%,-10.9%,35.5µM*,-2.7%,4.6
COc1ccc(C(=O)COC(=O)CCNS(=O)(=O)c2ccccc2)cc1Br,.,11.0,-12.2%,4.8%[15.4 µM],3.0%,-2.2%,-2.1
COc1c(C(=O)Nc2nnc(C3CC3)s2)csc1Cl,.,-0.4,0.4%,7.8%,7.5%,-16.6%,-11.7
CC(NC(=O)C(C)N1CCN(Cc2ccccc2)CC1)c1ccccc1 (stereo not drawn),1.4,1.8,6.4%,2.2%,-2.9%,.,8.1
COc1ccc(C#Cc2c(-c3ccc(OC)cc3)oc3ccc(-c4ccc5c(c4)OCO5)cc23)cc1,.,4.1,10.1%,10.4%,.,35.4%,.
CCN(CC)CCCOC(=O)C(c1ccccc1)c1ccccc1,0.0,1.3,8.5%,.,0.2%,-1.4%,-2.4
CCN(CC)S(=O)(=O)c1ccc(NC2c3ccccc3C(=O)N2Cc2ccco2)cc1 (stereo not drawn),2.4,-1.7,-11.3%,-26.1%,-17.8%,0.5%,.
O=C(CC1CCCCC1)Nc1ccccc1-c1ccccc1,1.7,.,-10.7%,-48.0%[inhibitor],24.6%,-0.7%,5.4
COc1ccc(CCNC(=S)N2CCC(Cc3ccccc3)CC2)cc1OC,-5.4,-3.8,-15.0%,10.8%[15.4 µM],4.2%,7.94µM*,-2.1
COc1ccc(NC(=S)NCc2ccc(Cl)cc2)c(OC)c1,-2.2,.,-15.4%,-15.2%,8.5%,0.3%,6.4
CC1CCCCC1N(C)C1CCN(C(=O)CNC(=O)/C=C/c2cccc(Cl)c2)CC1 (stereo not drawn),0.8,.,7.6%,?,-4.9%,-2.5%,-17.6
Cc1ccc(C(=O)NC(=S)N(C)C2CCCCC2)cc1,.,0.1,5.4%,-11.5%,-0.8%,0.8%,-6.7
CCS(=O)(=O)c1ccc2oc(SCC(=O)Nc3ccc(OC)cc3)nc2c1,-1.0,-20.9,-11.3%,19.0%,5.9%,-1.7%,13.0
C#CCn1cc[n+](CC(=O)N(C)C)c1,0.7,9.7,-0.8%,-21.2%,12.5%,0.9%,25.4
CC1CCN(CC(=O)Nc2cccc(C(=O)Nc3cccc(C(F)(F)F)c3)c2)CC1,7.9,3.8,-1.2%,-7.0%,4.7%,.,15.6
CC(NC(=O)COc1ccccc1Cl)c1ccccc1 (stereo not drawn),4.1,.,4.5%,-34.7%[inhibitor],4.0%,0.8%,1.7
COc1cc(/C=C/c2cc(C(=O)O)c3ccccc3n2)ccc1OC(F)F,6.1,-7.8,-3.7%,22.5%,1.2%,-18.4%,9.9
O=C(NCc1ccccc1)/C(=C/c1cccc([N+](=O)[O-])c1)NC(=O)c1ccco1,-1.9,0.0,.,32.8%[15.4 µM],15.6%,.,-21.9
CC(=O)c1ccc(Nc2cc(C)nc3ccc(C)cc23)cc1,-0.2,.,7.3%,7.4%[15.4 µM],-1.5%,.,-14.0
CCOc1cc(CN2CCN(CCOCCO)CC2)ccc1OC,4.1,5.8,-2.1%,-16.9%,5.2%,1.1%,-3.8
CCOC(=O)c1c(C)[nH]c(C)c1C(=O)COC(=O)CSc1ccc(C)cc1,.,-24.9,9.6%,1.2%,.,0.6%,.
Cc1nn2c(NCCN3CCOCC3)c3c(nc2c1-c1ccccc1)CCCC3,0.9,11.4,?,-18.5%,-13.6%,.,-11.7
O=C(O)c1cccc(CN2C(=O)SC(Nc3ccccc3)C2=O)c1 (stereo not drawn),2.7,9.7,-11.0%,-7.1%,-28.2%,-0.5%,-4.3
Cc1ccc2c(c1)N(CC(=O)OCC(=O)NCc1ccccc1)C(=O)CO2,-1.5,5.8,6.0%,?,7.3%,1.9%,-10.7

# The list goes on:
SMILES,Menin-MLL FL inh,CtBP-E1A inh,gsp antagonist,gsp ag,Sfp PPTase inh,ClpP mod,TRPV1 potentiator
Cc1cc(NCc2ccc3c(c2)OCO3)n2nc(C)nc2n1,0.6,-7.5,6.1%,-23.0%,8.4%,-1.4%,-5.2
CC(C)NC(=O)Cn1c(SCC(=O)N2CCc3ccccc3C2)nc2ccccc21,1.3,1.3,6.5%,2.8%,6.9%,-1.5%,-6.1
CCOC(=O)c1cc(-c2ccc(/C=N\n3cnnc3)o2)ccc1Cl,-0.5,-10.8,-3.2%,0.0%,6.2%,-14.8%,6.8
COc1ccc(-c2nc(-c3cccs3)c(-c3cccs3)[nH]2)cc1O,2.5,?,?,1.0%,2.2%,25.1µM*,-3.8
CC(C)OP(=O)(Nc1cccc2ccccc12)OC(C)C,6.6,2.6,-0.7%,1.8%,3.4%,.,1.0
Cc1cc(Cl)ccc1OCC(=O)Nc1ccc2oc(=O)ccc2c1,0.3,-6.8,-7.5%,-9.8%[15.4 µM],-10.0%,.,-6.5
